AID504770 = growth inhibitors of E. coli YBA685 in a screen for V. cholerae RctB (chromosome II replication) inhibitors. z-score (no concentration beside the values). E. coli YBA685 rctB-dependent plasmid, OD600 growth, 3 h; stronger effect = lower value. 0.27% of 130,000 active. AID 504770;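 active = z-score under -2 on both plates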;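 note: wells of about 30 µL received 100 nL stock; score is relative to mean and SD of the test wells; the first replicate is given; strong numbers were not always called active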
CapD inh = blocks the Bacillus anthracis CapD enzyme; z-score (concentration not given with the values); 0.23% of 140,000 active; purified CapD enzyme, fluorescence intensity read-out; stronger effect = lower value; some hits fall short of the stated cut;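 active = z-score under -4 in either of two replicates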;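 note: stock transfer was 100 nL into about 40 µL; score is relative to mean and spread of the plate; one replicate is shown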
An asterisk follows results filed as active; / = not tested or not shown; & = joins results of further samples.

Screens in order: AID504770, CapD inh
1) CSc1ccc(-c2nc(-c3ccc([N+](=O)[O-])cc3)c(-c3ccc(Oc4ccc(-c5nc(-c6ccc(SC)cc6)[nH]c5-c5ccc([N+](=O)[O-])cc5)cc4)cc3)[nH]2)cc1
→ /, -0.67
2) O=C(O)/C=C/c1ccc(Br)o1
→ -0.65, -1.4
3) O=C(NCc1cccc(C(F)(F)F)c1)c1ccc(=O)[nH]c1
→ 0, /
4) CCOC(=O)c1cc(C)ccc1N=Cc1cc(Cl)cc(Cl)c1O
→ -0.75, 92
5) Cc1cc(C(F)F)n2ncc(C(=O)N3CCCCC3)c2n1
→ -0.35, /
6) O=C(NC1CCN(Cc2ccccc2)C1)OCc1ccccc1-c1ccccc1 (centres undefined)
→ /, 0.27
7) S=c1[nH]nc(Nc2ccccc2)n1-c1ccccc1
→ -0.15, 0.12
8) O=C(Nc1ccc(F)cc1)N1CCN(C2c3ccccc3-c3ccccc32)CC1
→ 0.95, -0.53
9) COc1ccccc1-c1cc(C(=O)O)c2ccccc2n1
→ 1.5, 1.2
10) CCOC(=O)c1ccc2c(c1)N(CC#N)C(=O)C(C)(C)O2
→ -0.3, /
11) COc1ccccc1NC(=O)N(c1c(N)n(Cc2ccccc2)c(=O)[nH]c1=O)C1CCCC1
→ 1.1, /
12) Fc1ccccc1Nc1ncnc2sc(-c3ccccc3)cc12
→ -1, 16
13) O=C(/C=C/c1ccc(OCc2c(F)cccc2Cl)cc1)N1CCOCC1
→ /, -0.66
14) COc1cccc(C(=O)NC(c2ccc([N+](=O)[O-])cc2)c2cc(Cl)c3cccnc3c2O)c1 (centres undefined)
→ /, -0.04
15) COC(=O)Cn1c(=O)n(-c2ccccc2)c(=O)c2oc3ccccc3c21
→ -0.95, /

Three compounds already listed, arranged by SMILES length, low to high.
Screens in order: AID504770, CapD inh
12) Fc1ccccc1Nc1ncnc2sc(-c3ccccc3)cc12
→ -1, 16
10) CCOC(=O)c1ccc2c(c1)N(CC#N)C(=O)C(C)(C)O2
→ -0.3, /
6) O=C(NC1CCN(Cc2ccccc2)C1)OCc1ccccc1-c1ccccc1 (centres undefined)
→ /, 0.27

Additional structures follow:
Screens in order: AID504770, CapD inh
16) O=C(c1ccc(Cl)cc1)C1CCN(C(=O)OCCCc2ccccc2)CC1
→ /, 0.52
17) CC(C)(C)c1cc(C(F)(F)F)[nH]n1
→ /, -0.32
18) O=C(/C=C1/NCC2c3ccccc3CCN2C1=O)c1ccc(F)cc1 (centres undefined)
→ 0.05, -0.97
19) N#Cc1ccc(/C=N/NC(=O)Cn2ccc(C(F)(F)F)n2)cc1
→ 0.4, /
20) COC(=O)c1sccc1S(=O)(=O)Nc1ccc(N2CCCCC2)cc1
→ -0.65, 0.57
21) Cn1c(-c2ccccc2)c[nH]c1=S
→ -0.95, 1.8
22) CCOC(=O)c1c(C)nn(-c2ccc(NC(=O)Nc3ccc(C)cc3)cn2)c1C
→ /, 0.39
23) O=C(O)/C=C/c1c(F)c(F)c(N2CCOCC2)c(F)c1F
→ -0.3, 0.86
24) Clc1ccc(-c2csc(N3CCN(c4ccccc4)CC3)n2)cc1
→ 0.4, 0.33
25) Cc1ccc(C2OC3(C(=O)c4ccccc4C3=O)C3C(=O)N(c4cccc(C)c4C)C(=O)C23)cc1 (centres undefined)
→ /, 0.45
26) CCCN1CCC(N(C(=O)Nc2ccccc2C(=O)NCCOC)C2CC2)CC1
→ /, -0.15
27) CC(=O)OCc1ccc(/C=C(/C#N)S(=O)(=O)c2ccccn2)o1
→ /, 0.14
28) COc1ccccc1NC(=S)C(C#N)C(=O)N1CCOCC1 (centres undefined)
→ /, -1.6
29) COc1ccc(OCCC(=O)NC2=NCCS2)cc1
→ 0.1, /
30) Nc1n[nH]c2c1C1(CCCC1)Cc1ccccc1-2
→ 1.2, /
31) CCOc1ccc2nc(SCC(=O)Nc3ccccc3)[nH]c2c1
→ -0.5, 0.2
32) COc1ccc(NC(=O)c2ccc(Sc3ccccc3)c([N+](=O)[O-])c2)cc1
→ /, 0.2
33) CN(C=C1C(=O)NC(=O)NC1=O)Cc1ccc(Cl)c(Cl)c1
→ 0.45, /
34) CN1CCN(c2nc(N3CCN(CCO)CC3)nc3ccccc23)CC1
→ -0.95, 71
35) COC(=O)c1ccc(N=c2sc(C(=O)OC)cc(=O)n2C)cc1
→ -1.2, -0.075
36) O=C1/C(=C\c2ccc(F)cc2)C2=C(C(=O)N(c3ccccc3)C2c2ccc(Br)cc2)N1c1ccccc1 (centres undefined)
→ /, -0.22
37) CC(OC(=O)c1cccc(O)c1)C(=O)Nc1cccc(Cl)c1 (centres undefined)
→ -0.1, /
38) CC(=O)N[C@@H](Cc1c[nH]c2ccccc12)C(N)=O
→ -0.15, 0.99
39) O=S(=O)(NCCOc1cccc2cccnc12)c1ccc(F)cc1
→ 0.15, 0.16
40) COc1ccc(C2Nc3ccccc3C(=O)N2c2ccc(Cl)cc2)cc1COc1ccccn1 (centres undefined)
→ /, 22
41) O=C(NC1=C(Cl)C(=O)c2ccccc2C1=O)OCc1ccc([N+](=O)[O-])cc1
→ /, -1.1
42) O=C(OCC1CC1)c1cnc(N2CCCCC2)nc1C(F)(F)F
→ 0.75, 2.6
43) COC(=O)c1ccc(CN2CCCCC2)cc1
→ -0.35, -0.45
44) COc1ccc(C(=O)[C@@H]2[C@@H](c3ccccc3)C(C#N)(C#N)[C@H]3C=Cc4cc(Cl)ccc4N23)cc1
→ /, 1.1
45) NS(=O)(=O)C#Cc1ccccc1
→ -1.1, 0.62
46) CCN1CCCC1CNC(=O)CCCn1nc(C)n2c(cc3sccc32)c1=O (centres undefined)
→ 0.6, -0.49
47) Cc1ccc(C(C)N2CCNCC2)cc1C (centres undefined)
→ -0.1, -0.28
48) Cc1c(N=Cc2ccc(O)c(Br)c2)c(=O)n(-c2ccccc2)n1C
→ /, -0.34
49) COc1ccccc1-n1c(CNC(=O)c2ccc(S(=O)(=O)N(C)C)cc2)nnc1SCC(=O)N1CCCc2ccccc21
→ /, -1.1
50) Cc1cc(N(C)CC(=O)Nc2ccc(OC(F)(F)F)cc2)n2ncnc2n1
→ -0.3, /
51) O=C(Nc1ccncc1)c1ccc(Oc2cc(Cl)cc(Cl)c2)o1
→ 1.2, 0
52) O=C(Sc1ncccc1C(F)(F)F)c1cccc(C(F)(F)F)c1
→ 0.45, -1.1
53) CON(C)S(=O)(=O)c1cc(C(=O)OCc2nc(-c3ccc(Cl)cc3)no2)ccc1Cl
→ 0.75, /
54) COc1ccc(OC)c(CNC(=O)c2ccc3c(c2)ncn3C2CCCC2)c1
→ -0.25, -0.93
55) Cc1cc(C(=O)CSc2ccc(S(=O)(=O)N3CCN(Cc4ccccc4)CC3)cn2)c(C)n1C
→ 1.2, /
56) CCOP(=S)(c1ccccc1)C(C#N)(CC)CC (centres undefined)
→ 0.65, /
57) CCN1CCSc2ccc(C(=O)NCC3CCCO3)cc21 (centres undefined)
→ 0, 102
58) CCc1nnc(NC(=O)Nc2ccccc2C(F)(F)F)s1
→ 1.8, 4.3
59) CC(C)COCC(CN(Cc1ccccc1)c1ccccc1)N1CCCC1 (centres undefined)
→ 0, -0.12&0.41
60) Nc1c(-c2ccc(Cl)cc2)cnc2ncnn12
→ 2.2, -0.14
61) CCN(CC)C(=O)COc1ccc(/C(C)=N/NC(=O)Cc2ccccc2)cc1
→ -1, /
62) Cc1ccc2[nH]c(=O)c(-c3ccccc3)c(O)c2c1
→ /, 1.2
63) O=C(Cc1ccccc1)c1ccccc1
→ -0.15, -0.58
64) CCCCC(=O)Nc1ncc(Cc2ccccc2)s1
→ 1, -0.21
65) Cc1ccc(NC(=O)CS(=O)Cc2nc(-c3ccc(C)cc3)oc2C)cc1 (centres undefined)
→ -0.45, 0.7
66) CC(=O)n1c2c(c3ccccc31)OC(N)=C(C#N)C2c1cc(Br)ccc1F (centres undefined)
→ /, -0.86
67) CCN(CC)C(=S)SC1CCCCN(C(=O)c2ccc(F)cc2)C1=O (centres undefined)
→ 0.65, -0.31
68) CCOC(=O)C1=NNC2(C)C(=O)N(c3ccc(Br)cc3)C(=O)C12 (centres undefined)
→ /, 1.4
69) C1CCN2C(C1)N1CCCCC1N1CCCCC21 (centres undefined)
→ 2.1, /
70) CCOC(=O)c1snc2c(=O)[nH]cnc12
→ 0.05, -0.045
71) Cc1cc(C)cc(N2C(=O)NC(=O)/C(=C\c3cc(Br)c(N4CCOCC4)o3)C2=O)c1
→ /, 0.15
72) CCN(CC)S(=O)(=O)c1cccc(C(=O)NCCCN2CCOCC2)c1
→ 0.65, /
73) C=CCNC(=O)C12CCC(C)(C(=O)O1)C2(C)C (centres undefined)
→ /, -0.19
74) CCOc1ccc(CN(C)C(=O)CNC(N)=O)cc1
→ -0.2, /
75) Cc1ccc(CSc2ccccc2[N+](=O)[O-])cc1
→ /, 0.11

Additional results follow:
Screens in order: AID504770, CapD inh
76) CC1=CC(C)(C)N(C(=O)/C=C/c2ccccc2)c2ccc(C)cc21
→ -0.35, -0.28
77) COC(=O)C(C)(Cc1ccccc1)NC(=O)Cc1nc(-c2ccccc2)oc1C (centres undefined)
→ /, -0.13
78) CC1=C(C(=O)Nc2ccccn2)C(c2cccnc2)n2ncnc2N1 (centres undefined)
→ /, 1
79) Cc1ccc(Cn2nc(C)c(C(=O)NCc3ccco3)c2Cl)cc1
→ -0.45, /
80) O=C(CCN1N=C(c2ccccc2)CCC1=O)NC1CCCCC1
→ -0.7, -0.63
81) CC(=O)NOC(=O)c1c(-c2c(Cl)cccc2Cl)noc1C
→ -1.2, 0.46
82) O=C(C1CCCC1)N1CCc2ccccc21
→ 1.1, -0.41
83) O=C(NCc1ccccc1)c1cccnc1Nc1ccccc1
→ 0.05, -2.1
84) Cc1cccc(N2C(=O)C3C4C=CC(C4)C3C2=O)n1 (centres undefined)
→ /, -1.1
85) Cc1nn(-c2ccccc2)c2c1C1(C(=O)Nc3ccccc31)C(C#N)=C(N)O2 (centres undefined)
→ /, 0.12
86) NC(=O)c1ccsc1NC(=O)c1ccco1
→ -1.3, 0.81
87) CCOC(=O)NS(=O)(=O)c1ccc(C)cc1
→ -0.5, 0.3
88) CCCCn1c(N)c(C#N)c2nc3ccccc3nc21
→ 0.05, 81
89) O=C(OCc1cccc(Oc2ccccc2)c1)N1CCN(c2ccccn2)CC1
→ /, 3.5
90) Cc1ccc(O)c(-n2nc3ccccc3n2)c1
→ 0.4, -0.065

Four compounds picked at random from those above, as already listed:
Screens in order: AID504770, CapD inh
83) O=C(NCc1ccccc1)c1cccnc1Nc1ccccc1
→ 0.05, -2.1
80) O=C(CCN1N=C(c2ccccc2)CCC1=O)NC1CCCCC1
→ -0.7, -0.63
79) Cc1ccc(Cn2nc(C)c(C(=O)NCc3ccco3)c2Cl)cc1
→ -0.45, /
81) CC(=O)NOC(=O)c1c(-c2c(Cl)cccc2Cl)noc1C
→ -1.2, 0.46

Full records from above. Screens in order: AID504770	CapD inh
`CC1=C(C(=O)Nc2ccccn2)C(c2cccnc2)n2ncnc2N1` (centres undefined) across the screens: /	1
`CC(C)COCC(CN(Cc1ccccc1)c1ccccc1)N1CCCC1` (centres undefined) across the screens: 0	-0.12&0.41

Further compounds follow:
Screens in order: AID504770, CapD inh
91) CCOC(=O)N1CCN(C(=O)COc2ccc3c(c2)C(=O)CC(C)(C)O3)CC1
→ 0.65, 7.3
92) O=C(COc1cccc2c1CCN(Cc1ccc(Br)cc1)C2=O)N1CCOCC1
→ -0.7, 1
93) O=C(O)CN(c1ccccc1)c1ccccc1
→ -0.6, /
94) CC1=C(C(=O)OC2CCCC2)C(c2ccncc2)C2=C(CC(c3ccccc3)CC2=O)N1 (centres undefined)
→ 1.1, 40
95) Nc1c(C(=O)O)sc2ncccc12
→ -0.15, -1.8
96) CN1C/C(=C\c2ccccc2Cl)C(=O)/C(=C/c2ccccc2Cl)C1
→ 1.8, -0.78&-0.16
97) CSc1nnc(-n2cccc2)s1
→ -0.75, -0.44
98) COC(=O)Nc1ccc(SCC(=O)c2ccc(Cl)cc2)cc1
→ -1.2, -0.82
99) CNC(=O)c1ccsc1NC(=O)c1cccc(S(C)(=O)=O)c1
→ -0.7, /
100) CSc1nn2c(=O)c(C(C)(C)C)nnc2s1
→ 0.1, -0.52
101) CCOCCCN=C1Sc2nc3cc4c(cc3cc2CN1CC1CCCO1)OCO4 (centres undefined)
→ 0.4, /
102) CC(C)(C)OC(=O)COc1ccc(C#N)cc1
→ 0.75, /
103) CN(C)CC(O)Cn1c2ccc(Cl)cc2c2cc(Cl)ccc21 (centres undefined)
→ -0.8, 2.1
104) COc1cccc(NC(=O)C(c2ccccc2)N2CCN(S(=O)(=O)c3ccccc3)CC2)c1 (centres undefined)
→ 1, /
105) CCC1=NN(C(=O)COc2ccccc2C)C(O)(c2ccncc2)C1 (centres undefined)
→ 0, /
106) COc1ccc(CNc2cccc(C(=O)O)c2C)cc1OC
→ 0.5, 7.5
107) CC(C)(C)NC(=O)CN1C(=O)CCC1=O
→ 0.1, 0.41
108) CC(=O)Nc1nc2ccccc2n1Cc1ccc(C)cc1
→ -0.15, /
109) O=c1c(C(CN2CCOCC2)c2ccccc2)nc(-c2ccccc2)nn1CN1CCOCC1 (centres undefined)
→ -0.95, -1.4
110) CCOC(=O)c1noc(C)c1-c1csc(COc2ccccc2)n1
→ -0.3, 0.96
111) C=CC(=O)NCc1ccc(-c2csnn2)cc1
→ 0, 0.32
112) CSc1ccccc1N1C(=O)C=CC1=O
→ -2.5*, 0.23
113) CCC(=O)Nc1cccc(C(=O)N/N=C/c2cccc(C#N)c2)c1
→ /, 0.29
114) CCOC(=O)Cn1c2ccccc2n2nc(C)nc12
→ -0.85, /
115) O=C1OCCC1SC1=N/C(=C/c2ccco2)C(=O)N1c1ccc(OC(F)F)cc1 (centres undefined)
→ -0.3, /
116) COC(=O)C1=C(N)CCC(C(=O)OC)C1 (centres undefined)
→ /, 0.27

Assay outcomes (PubChem BioAssay)

Not all compounds are listed, so the mix of outcomes need not match the whole.
